Compound activity deposited in PubChem BioAssay by Fisher Drug Discovery Resource Center.
NPYLR7 ag = mosquito NPYLR7 agonism. HEK293T NPYLR7/Galpha15, GCaMP6s calcium fluorescence. activation, % at 10 µM. hit rate 0.15% among 270,000. AID 1259423; in the data active = activation above about 40%;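 note: 0% = vehicle and 100% = reference agonist at the receptor; some compounds past the cut are filed as inactive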
NPYLR7 ag max-min = second read-out of NPYLR7 ag, no call of its own (marks repeat the call); activation, %; measured here: Max-Min RFU normalised activation; some inactives read as strong as hits;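 span of the calcium signal over five minutes; 0% = vehicle and 100% = native peptide agonist; compound fluorescence can raise it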
* hit, by the source's call; & = joins results of further samples.

SMILES	NPYLR7 ag	NPYLR7 ag max-min
CN(Cc1cnc2nc(N)nc(N)c2n1)c1ccc(C(=O)NC(CCC(=O)O)C(=O)O)cc1 (centres undefined)	-4&-5	-10&-8
CCCc1nc(C2CN(C(=O)C(C)N3CCCCC3=O)CCO2)n[nH]1 (centres undefined)	6	3
COc1cccn2c(N(C)C(=O)C3CCCCC3)c(C)nc12	14	6
COc1cn(CC(N)=O)c(CN2CCCCCC2)cc1=O	1	-2
COc1cccc(-c2nn(-c3ccccc3)cc2CN(C)Cc2cccnc2)c1	0	-15
CCCC(C(=O)O)N1C(=O)/C(=C/c2ccc(O)cc2)SC1=S (centres undefined)	79*	71*
COc1ccc(NC(=O)c2sc(=O)n(Cc3ccccc3C)c2C)cc1OC	12	6
O=[N+]([O-])c1cccc(C2=Nn3c(Cc4ccccc4)nnc3SC2)c1	1	1
CC(C)c1ccc(/C(=C2\C(=O)c3ccccc3N2C)[N+](=O)[O-])cc1	2	0
CCOC(=O)C1(CCCc2ccccc2)CCN(C(=O)c2ccsc2)CC1	17	15
Fc1ccccc1-c1cnnc(N2CCN(Cc3ccc4c(c3)OCO4)CC2)n1	4	2
Oc1oc(-c2ccc(Br)cc2)nc1C=Nc1cccnc1	8	5
Fc1ccccc1Oc1cc(N2CCCCCC2)ncn1	-10	-4
CCSc1nn(CC(=O)Nc2ccc(OC)cc2)c(N)c1S(=O)(=O)c1ccccc1	-3	-12
CCOC(=O)N1CCN(C(=O)c2cc(N3C(=O)CCS3(=O)=O)ccc2Cl)CC1	-9	-11
O=C1CSC(c2ccc(Br)cc2)N1C1CCCCC1 (centres undefined)	-7	-16
Cc1ccc(S(=O)(=O)N(C)C)cc1NS(=O)(=O)c1ccc2[nH]c(=O)oc2c1	9	7
CCC(Sc1nc2ccccc2[nH]1)C(=O)Nc1nnc(C)s1 (centres undefined)	-6	-13
Cc1nc(-c2c[nH]c(C(=O)N(C)Cc3ccc(C(F)(F)F)cc3)c2)cs1	12	8
COc1cccc(Cn2ccnc2CN(Cc2ccco2)C(=O)c2ccccc2F)c1	-9	7
O=C(O)c1cc(=O)[nH]n1-c1ccc(Cl)nn1	7	4
CC(C)C1=CC2=CC[C@H]3[C@](C)(C(=O)O)CCC[C@]3(C)C2CC1 (some centres undefined)	1	-1
O=C(c1ccc(Cl)cc1)N(Cc1nccn1Cc1ccccc1C(F)(F)F)C1CCCCC1	0	5
COc1ccccc1Oc1cnc(N)nc1-c1ccc(OCc2ccccc2)cc1O	2	-3
COc1ccccc1CC(=O)N/N=C1\CCSc2ccccc21	1	2
N#Cc1c2n(c3c(NCCCO)ncnc13)CCCCC2	-1	18
CN(Cc1cnccn1)C(=O)/C=C/c1cc(Br)cs1	1	38
CCOC(=O)c1c(C)nn(-c2ccc(C(=O)NC(c3ccccc3)c3ccccn3)cc2)c1C (centres undefined)	-6	-11
CCOC(=O)C1CCN(C(=O)c2cc(S(=O)(=O)N3CCCCC3)ccc2C)CC1	-5	-10
CCC(C(=O)Nc1c(C)nc2ccc(Cl)cn2c1=O)c1ccccc1 (centres undefined)	4	3

Among those listed so far, 3 contain bromine.
SMILES	NPYLR7 ag	NPYLR7 ag max-min
Oc1oc(-c2ccc(Br)cc2)nc1C=Nc1cccnc1	8	5
O=C1CSC(c2ccc(Br)cc2)N1C1CCCCC1 (centres undefined)	-7	-16
CN(Cc1cnccn1)C(=O)/C=C/c1cc(Br)cs1	1	38

Other compounds.
SMILES	NPYLR7 ag	NPYLR7 ag max-min
NC(Cc1cnc[nH]1)C(=O)Nc1ccc2ccccc2c1 (centres undefined)	-6	-10
CCN(CC)S(=O)(=O)c1ccc2c(c1)nc(SCc1ccc(C(=O)OC)cc1OC)n2Cc1ccco1	-1	-5
O=C(C1CCCCO1)N1CCc2[nH]nc(-c3ccc(-c4ccccc4)cc3)c2C1 (centres undefined)	2	1
Cc1ccc(Cc2nc(N3CCCN(C(=O)c4cccc(Br)c4)CC3)c3c(-c4cccnc4)noc3n2)cc1	16	17
CN(Cc1ccsc1)C(=O)c1sccc1-n1cccc1	1	0
COC(=O)c1sc2nc(C)nc(NCC(=O)NC(C)C)c2c1C	-2	4
Cc1ccc(CN(C)CC2CCCN(CCc3ccc(Cl)cc3)C2)o1 (centres undefined)	-3	-6
CCO[C@H]1COC[C@@H]1NC(=O)CN1CCCCCC1	2	-2
CN1CCN(Cc2noc(C3CCOC(C)(C)C3)n2)CC1 (centres undefined)	-1	-6
O=C1CCC2(CCN1)CCN(c1nc3ccccc3s1)CC2	1	0
Cn1nnc2c(Nc3cccc(Br)c3)ncnc21	12	3
CCN(Cc1ccccc1)C(=O)C1CCN(c2ccc3nnc(C(F)(F)F)n3n2)CC1	-3	-4
COc1cc(C(O)CO)ccc1O (centres undefined)	-8	-7
Cc1cc(C(=O)N(CCCN2CCOCC2)c2nc3ccc(F)cc3s2)nn1C	8	6
Cc1cc([N+](=O)[O-])cc(S(=O)(=O)NCCc2ccccn2)c1C	11	6
O=C(c1cc(-c2ccccc2F)nn1-c1cccc([N+](=O)[O-])c1)N1CCN(c2ccccc2Cl)CC1	4	15
CC(=O)Nc1ccc(S(=O)(=O)Oc2ccc(Cl)cc2CN(Cc2ccc(F)cc2)C(=O)CC(C)(C)C)cc1	-2	6
CC(NCC(O)COC1CC2CCC1(C)C2(C)C)c1ccccc1 (centres undefined)	-3	-7
C=CCN1C(=O)/C(=C2\SC(=S)N(CC(=O)O)C2=O)c2ccccc21	2	10
CCSc1nc(C)c(C)c(C)c1C#N	-2	-2
CCc1c(C)cc(C(=O)N2CCn3cncc3C2)c(=O)n1C	3	-2
CCOC(=O)N1CCN(C(=O)CSc2ccc3nnc(-c4ccncc4)n3n2)CC1	-6	-6
Cc1nonc1OCCNC(C)C(=O)NC1CCCC1 (centres undefined)	20	9
CNS(=O)(=O)c1cc(C(=O)N2CCN(CC#N)CC2)ccc1F	3	2
CC(NC(=O)c1ncc[nH]1)C12CC3CC(CC(O)(C3)C1)C2 (centres undefined)	11	4
COc1c(C)cc(-c2ccncc2)cc1C	9	6
CN(C)CCNc1nc2c(F)cccc2s1	2	2
COc1ccc(CCN2CC(C(=O)N(C)C3CCOCC3)CCC2=O)cc1 (centres undefined)	3	3
O=C(COc1ccccc1)N[C@@H]1[C@@H](c2ccccc2)[C@@H](CO)N2CCCC[C@H]12	19	26
c1ccc(-c2cn(C3CCN(Cc4ccoc4)CC3)nn2)cc1	19	5
Cc1cc(C)c(C)c(C(=O)COC(=O)CNC(=O)CN2C(=O)c3ccccc3C2=O)c1C	1	6
Cc1cncc(N[C@H](C)c2ccccc2)n1	-1	-2
C=CCn1c(=O)c2c(nc3n2CC(C)=NN3Cc2ccc(Br)cc2)n(C)c1=O	-6	-8
CC1(Cc2ccccc2C#N)C(=O)Nc2ccc(-c3ccccc3)cc21 (centres undefined)	-4	2
O=C(c1cccs1)N(Cc1ccc(F)cc1F)CC1CC(c2ccc(Cl)o2)=NO1 (centres undefined)	31	31
CCCc1nc(N(C)Cc2cnc(NC)nc2)c2cnn(C)c2n1	20	8
CCCC(C)(C)NC(=O)CCN1CCN(C(C)=O)CC1	3	4
NC(=O)c1cccc(NC(=O)COCCOc2ccccc2)n1	9	-6
CC(NC(=O)CS(=O)(=O)c1nnc(C(F)(F)F)n1C)c1cccc(Cl)c1 (centres undefined)	-5	-8
COc1ccccc1CN(CCc1c[nH]c2ccccc12)C(=O)CN(C(=O)Cc1cccs1)C1CC1	0	7
CCc1ccc(OCCN(C)C(=O)c2ccc(C)[nH]c2=O)cc1	-8	-9
CC1CCCN(C(=O)CSc2nnc(Nc3cccc(F)c3)s2)C1 (centres undefined)	21	11
Cc1ccsc1CNc1cccc(C(=O)N[C@H](C)C(N)=O)c1	-3	7
CCOC(=O)/C(C#N)=C\c1[nH]c(C)c(C(=O)OCC)c1OC	-7	-14
COc1cccc2cc(C(=O)NC(C)=O)c(=Nc3ccc(F)cc3)oc12	-6	-12
Cc1c(C(=O)NCc2ccc(Cl)c(Cl)c2)sc(=O)n1Cc1ccccc1F	-1	-2
CCS(=O)(=O)c1ccc(CC(=O)N(Cc2ccccn2)c2nc3ccccc3s2)cc1	-2	-7
CCCCOc1ccc(C(=O)Nc2nc3c(s2)CCCC3)cc1	-7	-8
Cc1cn2c(nc3c2c(=O)n(CC(=O)OCc2ccccc2)c(=O)n3C)o1	-8	-9
COCCN(CC(=O)N(Cc1ccccc1)Cc1ccco1)C(=O)C(c1ccccc1)c1ccccc1	2	10
CCOc1ccccc1-c1nc(C(F)(F)F)nc(C)c1C	-4	-2
CCCc1cc(NCc2cccnc2)n2nc(C)c(-c3ccccc3)c2n1	6	13
CCOc1ccccc1C(=O)Nc1ccc(N2CCN(C(=O)c3cccc(C#N)c3)CC2)nc1	-4	6
Cc1[nH]c2ccc(CNC(=O)COc3ccc(-n4cnnn4)cc3)cc2c1C	23	18
CC(C)CN(C(=O)c1cccc([N+](=O)[O-])c1)C(C)c1nc2ccccc2c(=O)n1-c1ccc(Cl)cc1 (centres undefined)	2	-7
O=c1nc(SCc2ccccc2Cl)c2c([nH]1)CCC2	-4	-7
C=c1c(C#N)c2[nH]c(N)c(C#N)c(C)c-2/c1=C/c1ccc(C)o1	16	13
Cc1cccc(Nc2ncccc2C(=O)Nc2ccccc2C(C)C)c1C	-6	-12
CSc1ccccc1NC(=O)Cn1nc(C)c([N+](=O)[O-])c1C	-4	-9
Nc1ccnc(N2CC[C@H](CO)[C@@H](O)C2)n1	2	-3

Other compounds:
SMILES	NPYLR7 ag	NPYLR7 ag max-min
Nc1ccc(S(=O)(=O)c2ccccc2)cc1	2	5
Cc1ccsc1CN(C)C(=O)c1cc(CN(C)Cc2ccccc2)on1	4	2
Cc1ccc(C(=O)NCC2=CCCN(CCNC(N)=O)C2)cc1	-1	-4
O=C(/C=C/c1ccccc1)N1CCn2c(nnc2C(=O)N2CCCCC2)C1	-1	-4
CC(=NN=C(N)N)c1ccc(Cl)s1	2	-5
CC1CC(C)(C)CC2(C1)OCC(Cn1cncn1)O2 (centres undefined)	-10	-20
COCCCN(Cc1c(-c2ccc(F)cc2)noc1N1CCOCC1)CC(O)COc1ccccc1C (centres undefined)	5	7
COC1CCN(Cc2nc(Cc3ccccc3Cl)no2)CC1	22	9
Cc1ccc(C(=O)NCc2ccc3c(c2)cc(C)n3C)cc1	10	7
C#CCn1c(=NC(=O)c2cccs2)sc2cc(S(C)(=O)=O)ccc21	-2	-5
CC(=O)NCCCNC(=O)Nc1cc(Cl)ccc1F	-3	-5
CCC(O)(CC)CNC(=O)C1(CC)COC1	-2	-7
Cc1ccc2[nH]cc(-c3ccc(C(=O)N(C)C)o3)c2c1	8	4
O=C(CC12CC3CC(CC(Br)(C3)C1)C2)Nc1nncs1	3	1
c1ccc(-c2ncc(-c3nccn3CCCn3ccnc3)s2)cc1	-9	-11
CCn1cc(C(CC(=O)NCc2ccncc2)c2cccc(Oc3ccccc3)c2)c2ccccc21 (centres undefined)	0	-1
Oc1[nH]c(=S)sc1C=C1C=Nc2ccccc21	0	-7
CC1(Cc2ccc(Cl)cc2)C(=O)Nc2ccccc21 (centres undefined)	3	6
CCN1CCN(c2nc3c(C)cccn3c(=O)c2C=C2SC(=S)N(CCOC)C2=O)CC1	-3	-2
Cc1ccsc1-c1nc(CN2CCCN(C(=O)C3CCCO3)CC2)c(C)o1 (centres undefined)	-6	-5
CCc1nc(N2CCN(c3ccccc3)CC2)c2c(C)c(C)sc2n1	0	5
O=C(O)c1cc(=O)cc(C(=O)O)[nH]1	7	-11
Cc1cc(=O)c(C(=O)O)nn1-c1ccccc1C(F)(F)F	4	4
COc1cc(CC(=O)Nc2ccc(N(C)C)cc2)cc(OC)c1OC	8	9
Cc1ccc(C(=O)Nc2ccc(Nc3ccc(-n4cccn4)nn3)cc2)cc1	-4	-10
COCCn1c(C)c(C)n2c3c(=O)n(CC(C)C)c(=O)n(C)c3nc12	12	6
COc1ccc(CCNC(=O)NCC2CN(c3ccc(OC)c(OC)c3)C(=O)O2)cc1 (centres undefined)	3	12
COc1ccc(-n2ncc(CN3CCN4CCNC(=O)C4C3)c2C)cc1 (centres undefined)	0	-4
COc1cccc(F)c1-c1c(-c2ccccc2)ncn1Cc1cnc(C)cn1	-4	-4
Cc1ccc(S(=O)(=O)NCC(c2ccc3c(c2)CCN3C)N2CCN(C)CC2)cc1C (centres undefined)	8	6
Cc1cccc(C(=O)N(CCN(C)C)c2cccc(Br)c2)c1	7	3
COc1cccc(C(NS(=O)(=O)c2c(C)cc(C)cc2C)c2nccn2C)c1 (centres undefined)	-14	-7
COCc1ccccc1NC(=O)C(=O)NCCN1CCCCCC1=O	8	6
O=C(O)CCC1CCC(c2cc(F)ccc2F)(S(=O)(=O)c2ccc(Cl)cc2)CC1 (centres undefined)	17	-2

Quoted at random: four entries already listed.
SMILES	NPYLR7 ag	NPYLR7 ag max-min
Cc1cccc(C(=O)N(CCN(C)C)c2cccc(Br)c2)c1	7	3
COc1cccc(C(NS(=O)(=O)c2c(C)cc(C)cc2C)c2nccn2C)c1 (centres undefined)	-14	-7
COCc1ccccc1NC(=O)C(=O)NCCN1CCCCCC1=O	8	6
O=C(O)CCC1CCC(c2cc(F)ccc2F)(S(=O)(=O)c2ccc(Cl)cc2)CC1 (centres undefined)	17	-2

A portion of the library, so the mix of outcomes need not match the whole.
